CBX7 AlphaScr: CBX7 chromodomain binding inhibitors, primary screen, biochemical, AlphaScreen; AlphaScreen His6-CBX7 / biotin-H3K27me3 peptide binding; hits give low values; AID 1224903, 2016; 66,000 tested, 1.1% active; Chromobox protein homolog 7 (Homo sapiens), O95931; normalised signal (fraction of DMSO) (no concentration beside the values); in the data active = normalised signal below about 0.5;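 also: 100 nL library stock added to about 20 µL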
Target sequence (O95931 whole entry, looked up): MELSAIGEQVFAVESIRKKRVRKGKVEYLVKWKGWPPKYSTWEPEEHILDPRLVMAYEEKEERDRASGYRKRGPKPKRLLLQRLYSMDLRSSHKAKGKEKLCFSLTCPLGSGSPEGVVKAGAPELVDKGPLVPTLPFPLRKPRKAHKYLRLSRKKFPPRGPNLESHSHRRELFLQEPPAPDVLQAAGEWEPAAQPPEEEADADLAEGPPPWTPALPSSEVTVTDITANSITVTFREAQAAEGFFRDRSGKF
CBX7 AlphaScr z-score: also measured in CBX7 AlphaScr; calls as there; z-score; measured here: z-score of CBX7 signal; some inactives read as strong as hits; reference of the scale not given here;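 same signal on another scale; lower means less binding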
* marks the source's active call; other numbers are inactive results; & = joins results of further samples. The list is partial, so the mix of outcomes need not match the whole.

Preview:
Structure	CBX7 AlphaScr	CBX7 AlphaScr z-score
Cc1cc(C)c(NC(=O)C(C(C)C)N2C(=O)c3ccccc3C2=O)c(C)c1 (centres undefined)	0.9	-1.3
O=c1[nH]c2ccc(S(=O)(=O)NCc3cccnc3)cc2[nH]1	1.2	1.7
CCCOc1ccc(C2C(=O)N(C3CCCCC3)CC(=O)N2Cc2cccs2)cc1OC (centres undefined)	0.91	-0.19

The whole of this part, repeating the preview:
Structure	CBX7 AlphaScr	CBX7 AlphaScr z-score
Cc1cc(C)c(NC(=O)C(C(C)C)N2C(=O)c3ccccc3C2=O)c(C)c1 (centres undefined)	0.9	-1.3
O=c1[nH]c2ccc(S(=O)(=O)NCc3cccnc3)cc2[nH]1	1.2	1.7
CCCOc1ccc(C2C(=O)N(C3CCCCC3)CC(=O)N2Cc2cccs2)cc1OC (centres undefined)	0.91	-0.19
O=C(Cc1c(C(=O)O)[nH]c2ccccc12)Nc1ccc(F)cc1	1	0.5
Cc1c(NC(=O)c2ccccc2F)cccc1-c1nc2cc(Cl)ccc2o1	1.1	2.1
CCCCCCOc1ccc(-c2ccc(C#N)cn2)cc1	1.4	9.2
COc1ccc(Nc2ccc3nnc(-c4ccc(Br)cc4)n3n2)cc1	1.1	0.72
Cc1ccc(NC(=O)CNC(=O)Cn2cnc3sc4c(c3c2=O)CCCC4)c(Br)c1	0.92	-1.1
CCN(CC)CC(=O)Nc1c2c(nc3ccccc13)CCCC2	0.81	-2
N#Cc1nc(COc2cccc(Cl)c2)oc1N1CCCCC1	0.5	-3.1
O=C(CSc1nnc(-c2ccc(Cl)cc2Cl)o1)Nc1ccccc1	1	0.13
O=C1C(=O)N(CCCn2ccnc2)C(c2ccc(Cl)cc2)C1=C(O)c1ccccc1 (centres undefined)	0.99	-0.37
O=C(c1ccc2c(=O)n(CCc3ccccc3)c(=O)[nH]c2c1)N1CCN(c2ccccn2)CC1	1	0.18
CCN1C(=O)c2ccccc2S(=O)(=O)c2ccc(C(=O)N3CCc4ccccc4C3)cc21	0.8	-5.6
CCN(Cc1ccccc1)C(=O)CC1Oc2ccccc2NC1=O (centres undefined)	1	0.28
Cc1ccc2nc(-c3ccsc3)c(Nc3ccccc3C)n2c1	0.93	-0.093
C=CCN(CC=C)S(=O)(=O)c1ccc(C(=O)Nc2sc3c(c2C(=O)OC)CCN(C)C3)cc1	1.1	3.8
CC(CC(=O)NC1CCCCC1)CC1=NS(=O)(=O)c2ccccc2N1 (centres undefined)	1.1	1.1
Cn1nc(-c2ccc(C(=O)Nc3ccc(C(=O)N4CCCCC4)cc3)cc2)c2ccccc2c1=O	1.1	0.51
COC(=O)Cc1nc(Nc2ccc(F)cc2F)c2c(C)c(C)sc2n1	0.94	-0.055
COc1ccc(C2=NOC(C(=O)N3CCOCC3)C2)cc1 (centres undefined)	1.1	0.72
CCOC(=O)C1CCCN(c2c(NCCN3CCCCC3CC)c(=O)c2=O)C1 (centres undefined)	0.95	-1.7
COc1ccc(-n2c(C)ccc2-c2ccccc2)nc1	0.86	-1.6
CCc1ccc(NC(=O)CN(c2ccc(C(C)C)cc2)S(=O)(=O)c2c(C)nn(C)c2C)cc1	0.85	-2.2

One compound at a time, as listed above. Screens in order: CBX7 AlphaScr | CBX7 AlphaScr z-score
Cn1nc(-c2ccc(C(=O)Nc3ccc(C(=O)N4CCCCC4)cc3)cc2)c2ccccc2c1=O as listed: 1.1 | 0.51
CCc1ccc(NC(=O)CN(c2ccc(C(C)C)cc2)S(=O)(=O)c2c(C)nn(C)c2C)cc1 as listed: 0.85 | -2.2

(more compounds)
Structure	CBX7 AlphaScr	CBX7 AlphaScr z-score
Cc1ccc(-c2ccc(=O)n(CCC(=O)NC(C)C)n2)cc1	1	-0.0021
Cc1cccc(CN2CCC(CNC(=O)CCc3nc(-c4ccccc4F)no3)CC2)c1	0.86	-2.2
COc1ccc(CNC(=O)CCc2c(C)nc3cc(-c4ccc(OC)cc4OC)nn3c2C)cc1	0.96	-0.55
CCN(CCCNC(=O)CC1Nc2ccccc2NC1=O)c1cccc(C)c1 (centres undefined)	0.64	-2.9
CC(=O)Nc1ccc(S(=O)(=O)Nc2cccc3cccnc23)cc1	0.045*	-42*
Cc1cc(NS(=O)(=O)c2ccc(Nc3nc(-c4ccncc4)cs3)cc2)no1	1	0.16
CC(C)NC(=O)c1ccc2c(c1)N(Cc1ccc(Cl)cc1)C(=O)c1ccccc1S2=O (centres undefined)	1	0.67
Cc1onc(-c2ccccc2Cl)c1C(=O)NCCN1CCOCC1	1.1	0.6
COc1ccc(NC(=O)N(CCC(C)C)C(C)c2ccccn2)c(OC)c1 (centres undefined)	0.81	-4.9
FC(F)(F)c1cccc(Nc2nnc(Cc3cccnc3)c3ccccc23)c1	0.99	-0.29
COc1ccccc1-c1cc(C(=O)Nc2ccc3c(c2)OCO3)no1	1	0.52
COc1ccc(C(=O)Nc2c3c(nn2-c2cc(C)cc(C)c2)CSC3)cc1OC	0.88	-0.12
Cc1ccc(NCc2nc(-c3ccccc3)no2)cc1	1.2	1.4
Cc1ccc(Cc2cnc(NC(=O)COc3ccccc3C)s2)cc1	0.99	-0.09
COc1ccc(C(C(=O)NC2CCCC2)N(C)Cc2ccccc2)cc1 (centres undefined)	0.89	-2.8
COc1ccc(CC(=O)NCCc2cc3cc(C)c(C)cc3[nH]c2=O)cc1	1.1	0.82
COc1ccc(-n2nc3c(c2NC(=O)c2cccc(Br)c2)CSC3)cc1	0.88	-2.7
Cc1cc2nc3scc(-c4ccc(Cl)cc4)n3c2cc1C	1	-0.058
COCCn1c(Cc2ccccc2)nc2ccccc21	0.97	-0.72
CCCN1C(=O)CN(C2CCC(C)CC2)C(=O)C1c1ccc(C)cc1 (centres undefined)	1.1	0.61
Cc1ccc(N(CC(=O)Nc2nc(C)cs2)S(=O)(=O)c2cccnc2)cc1	0.84	-2.5
CC1CCc2c(sc(NC(=O)CCSc3ccccc3)c2-c2nc3ccccc3s2)C1 (centres undefined)	1.4	1.9
Cc1cc(C)c(NC(=O)CN2C(=O)CC(c3ccccc3)Sc3ccccc32)c(C)c1 (centres undefined)	1.1	0.97
COc1ccc(-n2nc(C(=O)Nc3nc4ccccc4s3)c3ccccc3c2=O)c(OC)c1	1	0.52
CC(=O)Oc1ccc(C(=O)Nc2ccc(O)c(-c3nc4ccccc4o3)c2)cc1	0.96	-1.8
CCOc1cc(C(=O)Nc2cccc(-c3nc4ncccc4o3)c2)cc(OCC)c1OCC	0.83	-2.7
Cc1ccc(S(=O)(=O)Nc2ccc3oc(C)c(C(N)=O)c3c2)cc1	1.2	0.65
O=C1CCc2cc(S(=O)(=O)NC(Cc3ccccc3)C(=O)N3CCc4ccccc4C3)ccc2N1 (centres undefined)	1	0.39
COc1ccccc1-n1cc(C(=O)NCC(=O)NC2CCCCC2)c2ccccc2c1=O	0.85	-2.2
O=C(NC1CCCC1)c1c[nH]c2ccc(S(=O)(=O)Nc3ccccc3F)cc2c1=O	1	0.29
O=C(NC1CCCCC1)C1CCC(=O)N1CCc1ccccc1 (centres undefined)	1	0.11
COc1cccc(NS(=O)(=O)c2ccc3[nH]cc(C(=O)NC4CCCC4)c(=O)c3c2)c1	1	0.17
O=S(=O)(c1cccc(-c2cn3ccccc3n2)c1)N1CCOCC1	1	0.0072
CNS(=O)(=O)c1cc(-c2nnc(Nc3cccc(Cl)c3)c3ccccc23)ccc1C	1.1	2.6
CCCNC(=O)Cn1ncc2ccsc2c1=O	1	1.3
Cc1ccc(-n2c3c(cc(C(=O)N4CCOCC4)c2=O)C(=O)CCC3)cc1	1.1	0.45
Cc1ccc(CCNC(=O)c2cc(Nc3ccccc3)nc3ccccc23)cc1	1	0.07
COc1ccc(C(=O)Nc2c3c(nn2-c2ccc(C)cc2)CS(=O)(=O)C3)cc1	1.2	1.3
CC(=O)Nc1nonc1-c1nc2ccccc2n1Cc1ccccc1Cl	0.94	-1.1
COc1ccc(C2CC(c3ccc(F)cc3)n3ncnc3N2)cc1 (centres undefined)	1.1	2.3
Cc1cc(C(=O)NCCc2c[nH]c3ccccc23)nn1-c1ccccc1	1	0.83
COc1ccc2c(c1)-c1nc(NC(=O)c3cccnc3)sc1CC2	1	0.82
Cc1oc(-c2ccccc2Cl)nc1CS(=O)(=O)CC(=O)NC1CCC(C)CC1 (centres undefined)	0.99	-0.22
O=C(O)C1C2C=CC(C2)C1C(=O)Nc1ccc([N+](=O)[O-])cc1 (centres undefined)	0.99	-0.26
O=C(O)C1Cc2c([nH]c3ccccc23)C(c2cccc(C(F)(F)F)c2)N1 (centres undefined)	0.95	-1.5
Cc1cc(OCCN2CCOCC2)nc(N2CCOCC2)n1	0.96	-1.2
CCOc1ccc(CCNC(=O)CCc2c(C)nc3c(-c4ccc(F)cc4)c(C)nn3c2C)cc1	1	0.49
O=C(NC1CC1)c1ccc2c(c1)N(Cc1ccccc1)C(=O)c1ccccc1S2=O (centres undefined)	1	0.12
COc1cc(C2C(=O)N(C3CCCCCC3)CC(=O)N2Cc2ccc(F)cc2)ccc1OC(C)C (centres undefined)	0.95	-0.88
Cc1c(Cl)cccc1NC(=O)C1=CCN(S(=O)(=O)c2ccccc2)CC1	0.95	-0.98
CC1CCCCN1CCNC(=O)C1(S(=O)(=O)c2ccc(Cl)cc2)CC1 (centres undefined)	1	1.1
CCN(Cc1ccccc1)C(=O)Cn1nc(Cc2cccnc2)c2ccccc2c1=O	0.97	-0.95
CC(C)C(NC(=O)CN1C(=O)c2ccccc2S1(=O)=O)C(C)C	1	0.32
CCOC(=O)c1cnc2c(OC)cccc2c1NCCO	1.1	3.9
COC(=O)c1c[nH]n2c(NC3CCC(C)CC3)c(-c3ccc(OC)c(OC)c3)nc12 (centres undefined)	0.27*	-0.82*
Cc1[nH]n2c(=O)c3c(nc2c1-c1ccc(Cl)cc1)CCC3	0.71	-5

(continued)
Structure	CBX7 AlphaScr	CBX7 AlphaScr z-score
COc1ccc(NC(=O)CNC(=O)Cn2cnc3sc(C)c(C)c3c2=O)c(OC)c1	1	0.36
O=C(Nc1ccccc1)c1cccnc1Nc1ccc(Cl)cc1	1.1	0.9
CCCCNC(=O)CSc1nc(NCCCC)c2ccccc2n1	0.97	-1.3
c1ccc(-c2nnc3ccc(NCCCN4CCOCC4)nn23)cc1	1.2	4.1
Cc1c(Cl)cccc1NC(=O)c1cc(-c2cccs2)nc2ccccc12	0.98	-0.066
Cc1ccc(Cn2c(C(=O)NC(C)c3ccccc3)cc3sccc32)cc1 (centres undefined)	1.1	2.6
CN(C(=O)Cn1c(SCc2cccc(F)c2)nc2ccncc21)c1ccccc1	0.93	-2.2
Cc1cccc2nc(-c3ccsc3)c(Nc3ccc4c(c3)OCCO4)n12	0.88	-0.17
COc1ccc(S(=O)(=O)Nc2ccc3oc4c(c3c2)C(=O)CCC4)cc1	1	0.11
COc1ccc(Nc2c(-c3ccc(C)cc3)nc3sccn23)cc1OC	0.77	-9.1
O=C(Nc1ccc(Cl)cn1)c1sc2ccccc2c1Cl	1.2	1.2
O=C(C1CCC1)N1CCc2cc(S(=O)(=O)N3CCc4ccccc4C3)ccc21	0.95	-1.7
Cc1ccc(CNC(=O)c2ccc3c(c2)ncn3C2CCCC2)cc1	0.95	-0.53
O=C(NCCN1CCOCC1)c1cc(-c2ccc(Cl)cc2)on1	0.99	-0.38
NC(=O)C1(N2CCCCC2)CCN(C(=O)CCCn2c(=O)[nH]c3ccccc3c2=O)CC1	1.1	0.25
COCCNC(=O)c1nn2c(C(F)(F)F)cc(-c3cccs3)nc2c1Cl	0.95	-0.44
CCOC(=O)c1c(NC(=O)COc2cccc(C)c2C)sc(C)c1C	1.1	2.9
COCc1nnc(NC(=O)c2ccc(S(=O)(=O)N3CCOCC3)cc2)o1	0.69	-7.8
CCc1ccccc1NC(=O)Cn1c(SCc2cccc(F)c2)nc2ccncc21	1.1	3.4
COc1ccc(-c2nnn(CC(=O)Nc3ccc(F)cc3)n2)cc1	1.1	0.28
O=c1c(S(=O)(=O)c2ccc(F)cc2)c[nH]c2ccccc12	1.1	2
CN1C(=O)CSc2ccc(NC(=O)NCCC3=CCCCC3)cc21	1	1.9
Cn1c(=O)[nH]c(=O)c2c1nc(CN1CCOCC1)n2Cc1ccc(Cl)cc1	1	0.31
CCC(C)NC(=O)C1CCN(C(=O)c2cc3sccc3n2C)CC1 (centres undefined)	0.95	-0.81

Copied from the list:
Entry for `O=c1c(S(=O)(=O)c2ccc(F)cc2)c[nH]c2ccccc12` in CBX7 AlphaScr z-score: 2
Entry for `COc1ccc(-c2nnn(CC(=O)Nc3ccc(F)cc3)n2)cc1` in CBX7 AlphaScr: 1.1

More structures
Structure	CBX7 AlphaScr	CBX7 AlphaScr z-score
O=C(CSc1nnnn1-c1ccccc1F)NCc1ccc2c(c1)OCO2	1	0.056
OCCNc1nc(-c2ccc(Cl)cc2)nc2ccccc12	1.1	2
CCOC(=O)c1cnc2cc(C(F)(F)F)ccc2c1Nc1ccc(C(C)C)cc1	1.3	4.9
Cc1ccc2cc(CCNC(=O)COc3ccc(Cl)cc3)c(=O)[nH]c2c1C	1.1	0.8
Cc1ccccc1Cn1c(CCNC(=O)C(C)(C)C)nc2ccccc21	1.1	1.8
O=C(CCN1C(=O)COc2ccccc21)NCCCN1CCc2ccccc2C1	1	0.18
CCn1c(CSc2nc(C)cc(=O)[nH]2)nc2ccccc21	1&0.94	1.4&-1.8
CCOC(=O)c1cnc2ccc(OCC)cc2c1Nc1ccc(OC)c(Cl)c1	0.86	-4.1
CCOc1ccc(NC2CCN(C(C)=O)CC2)cc1	0.78	-4.1
O=C(Cn1ncc2c1-c1ccccc1OC2)Nc1cccnc1	0.97	-0.93
Brc1cccc(-c2nc3ccccn3c2Nc2ccc3c(c2)OCCO3)c1	0.44*	-4.5*
Cc1nnc(Sc2cc(C(=O)NCCCOC(C)C)c3ccccc3n2)s1	0.78	-2.4
CC(=O)N(C)C1(c2nnnn2-c2cccc(Cl)c2)CCCCC1	1.1	1.2

Source: PubChem BioAssay
